High-throughput results (PubChem)
RE007 growth inh – less growth of the S. pombe RE007 Vpr strain. 0.21% of 360,000 active. Potency, µM (top dose mostly 92.2 µM), inactives show at the top dose activity change, negative = less growth. S. pombe RE007 Vpr strain, BacTiter-Glo ATP luminescence, 24 h; control for the full effect not named in the record; active = well fitted falling curve with a large enough effect; inconclusive = small, poorly fitted or top-dose-only effect; inactive = no such curve, though single readings can be large or run the other way;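 note: % is set by controls: 0 for no effect and ±100 for the full control effect; nearly all actives have a fitted effect of over 50% in size; the assay follows cell death caused by Vpr and the record does not say whether a fall means rescue or toxicity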
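Fission yeast strain RE007, carrying one chromosomally integrated HIV-1 vpr copy, was seeded at OD 0.01 in PMG+AL medium with 23 nL pinned compound. After 24 h at 30 °C and 99% humidity, viability was read by BacTiter-Glo luminescence.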
StopGo reporter – lowers the luciferase signal of an FMDV 2A StopGo reporter; Potency, µM (titrated, usually from 57.9 µM), inactives show at the highest dose signal change, negative = less light; AID 1159524; human cells with a luciferase reporter of 2A StopGo recoding; control for the full effect not named in the record; 1.2% of 410,000 active; active = well fitted falling curve with a large enough effect; inconclusive = small, poorly fitted or top-dose-only effect; inactive = no such curve, though single readings can be large or run the other way; tested in HEK293T cells; note: % is set by controls: 0 for no effect and ±100 for the full control effect; nearly all actives have a fitted effect of over 45% in size; luciferase light after 4 h
MARV entry inh – blocks Marburg virus binding to or entry into cells; 1.8% of 300,000 active; Potency, µM (highest dose often 37.8 µM), for inactives: at the highest dose activity change, negative = inhibition, actives largely listed as inhibitors; Marburg virus pseudotyped entry inhibition, cell reporter; control for the full effect not named in the record; about a third of the inactives were read at about 46 µM; active = well fitted inhibition curve with a large enough effect; inconclusive = small, poorly fitted or top-dose-only effect, or effect the other way; inactive = flat fitted curve, though single readings scatter; tested in HEK293 cells; about a fifth of its hits are not listed in these tables; note: % is set by controls: 0 for no effect and ±100 for the full control effect; luciferase read-out
Cruzain inh noDet – inhibitors of Trypanosoma cruzi cruzain without detergent. purified cruzain, Z-FR-AMC fluorescence, no detergent. 2.3% of 200,000 active. P25779. Potency, µM, for inactives: max response, negative = inhibition, usual class: inhibitors;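 note: plate controls were enzyme without inhibitor for no effect and buffer without enzyme for full effect; nearly all actives have a fitted effect of over 40% in size; top concentration of the series not given in the record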
Target sequence (P25779 123-467 limits assumed): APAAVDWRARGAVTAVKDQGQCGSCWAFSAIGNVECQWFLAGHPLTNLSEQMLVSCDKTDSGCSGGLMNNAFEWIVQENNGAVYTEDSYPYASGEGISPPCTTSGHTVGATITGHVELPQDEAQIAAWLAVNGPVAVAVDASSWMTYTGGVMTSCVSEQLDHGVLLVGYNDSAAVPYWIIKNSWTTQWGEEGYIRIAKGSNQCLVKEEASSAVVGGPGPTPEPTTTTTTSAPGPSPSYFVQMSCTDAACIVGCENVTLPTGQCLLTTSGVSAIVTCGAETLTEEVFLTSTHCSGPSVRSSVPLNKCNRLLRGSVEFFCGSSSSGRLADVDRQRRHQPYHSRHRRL
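Purified cruzain at 1.5 nM, pre-incubated 15 min with compound at room temperature in 100 mM sodium acetate pH 5.5, 5 mM DTT, 0.00005% Triton X-100. Reaction started with 2 uM Z-FR-AMC; AMC fluorescence increase over 60 s gives rate.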
NS1 inh – inhibitors of influenza NS1 protein function; S. cerevisiae slowed by influenza A NS1, growth recovery by OD600; Potency, µM (doses to about 46.1 µM), for inactives: top-dose activity, positive = more growth; 0.4% of 270,000 active; AID 2326; active means well fitted rising curve with a large enough effect; inconclusive means small, poorly fitted or top-dose-only effect; inactive means no such curve, though single readings can be large or run the other way; note: nearly all actives have a fitted effect of over 50% in size
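In this qHTS, NS1 from influenza A is expressed in budding yeast, where it slows growth. Cells are switched from glucose to 2% galactose medium (pH 6.0, -URA), treated with compound, and growth recovery is read at OD600.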
Cruzain inh Det – blocks cruzain activity in presence of Triton detergent; P25779; 0.43% of 200,000 active; AID 1478; Potency, µM, for the others: max response, negative = inhibition, most hits filed as inhibitors; purified cruzain, Z-FR-AMC fluorescence, 0.01% Triton;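 note: plate controls were neutral wells for no effect and buffer without enzyme for full effect; nearly all actives have a fitted effect of over 40% in size; top concentration of the series not given in the record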
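Steps: dispense cruzain (1.5 nM final) in acetate buffer pH 5.5 with DTT and 0.01% Triton X-100; pin-transfer compounds; incubate 15 min RT; add Z-FR-AMC (2 uM final); read fluorescence every 30 s, using the 60 s intensity change.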
SARS PLP yeast – blocks SARS-CoV papain-like protease in a yeast assay; S. cerevisiae expressing SARS-CoV PLpro, growth rescue; control for the full effect not named in the record; Potency, µM (doses to about 32.9 µM), without a hit: at the highest dose activity, positive = growth rescue; 0.19% of 330,000 active; AID 485353; active means well fitted rising curve with a large enough effect; inconclusive means small, poorly fitted or top-dose-only effect; inactive means no such curve, though single readings can be large or run the other way; note: 0% is about no effect; nearly all actives have a fitted effect of over 55% in size; growth read by luminescence after 48 h
Lassa entry inh – Lassa virus entry inhibition; Lassa virus pseudotype entry inhibition, cell reporter; control for the full effect not named in the record; Potency, µM (series often up to 37.9 µM), without a hit: top-dose activity change, negative = inhibition, most hits filed as inhibitors; 1.2% of 300,000 active; active means well fitted inhibition curve with a large enough effect; inconclusive means small, poorly fitted or top-dose-only effect, or effect the other way; inactive means flat fitted curve, though single readings scatter; tested in HEK293 cells; note: % is set by controls: 0 for no effect and ±100 for the full control effect; nearly all actives have a fitted effect of over 50% in size; luciferase read-out
An asterisk follows results filed as active; ? = inconclusive; · = no result given; & = joins results of further samples; [ ] = remark or other dose. Unless noted, calls come from the whole dose curve; as a rule, active = well fitted curve in the direction sought with a large enough effect; inconclusive = small, poorly fitted or top-dose-only effect, or another doubt; inactive = no such curve, though single readings can be large; an effect the other way counts as inactive or inconclusive. Potency is the fitted concentration of half-maximal effect.

Sample of the layout:
Structure,RE007 growth inh,StopGo reporter,MARV entry inh,Cruzain inh noDet,NS1 inh,Cruzain inh Det,SARS PLP yeast,Lassa entry inh
CCOC(=O)c1c(C)sc(Sc2ccc(Cl)cc2[N+](=O)[O-])c1OC,-6%,?,-10%,5%,1%,-1.7%,-24%,-22%
Cc1[nH]c(=O)c(C#N)c(C)c1[N+](=O)[O-],-9%,-7%,·,·,1%,·,-2%,·
COc1ccc(CNC(=O)Cn2cccc2C(=O)c2ccccc2)cc1,0%,21%,·,·,5%,·,-3%,·

Main list (from the top)
Structure,RE007 growth inh,StopGo reporter,MARV entry inh,Cruzain inh noDet,NS1 inh,Cruzain inh Det,SARS PLP yeast,Lassa entry inh
CCOC(=O)c1c(C)sc(Sc2ccc(Cl)cc2[N+](=O)[O-])c1OC,-6%,?,-10%,5%,1%,-1.7%,-24%,-22%
Cc1[nH]c(=O)c(C#N)c(C)c1[N+](=O)[O-],-9%,-7%,·,·,1%,·,-2%,·
COc1ccc(CNC(=O)Cn2cccc2C(=O)c2ccccc2)cc1,0%,21%,·,·,5%,·,-3%,·
Cc1cc(C)c2oc(C(=O)Nc3ccc(S(=O)(=O)N(C)c4ccccc4)cc3)cc(=O)c2c1,·,-24%,3%[46.1 µM],-6%,·,-0.9%,·,1%[46.1 µM]
COc1ccc2c(c1)C(SCC(=O)NCCc1ccc(Cl)cc1)CC(C)(C)O2 (centres undefined),5%,10%,-26%,-10%,-48%,-3.6%,-16%,-16%
CN(Cc1ccccc1Cl)C(=O)C1CCC(=O)N(C2CCCCCC2)C1 (centres undefined),8%,4%,·,·,-19%,·,1%,·
FC(F)(F)c1ccc(Cl)c(-n2c(Cc3cccs3)n[nH]c2=S)c1,17%,10%,·,·,?,·,-1%,·
O=C(Nc1c2c(nn1-c1ccccc1)CS(=O)(=O)C2)c1ccccc1C(F)(F)F,16%,-22%,-5%,·,11%,·,4%,0%
CCN(CC)S(=O)(=O)c1ccc2c(c1)c(=O)c(C(=O)N(C)Cc1ccccc1)cn2C,·,19%,6%[46.1 µM],-6%,·,-3.7%,·,-3%[46.1 µM]
C=CCn1c(SCC(=O)NC2CCS(=O)(=O)C2)nc2scc(C3CC3)c2c1=O (centres undefined),6%,13%,-35%,1%,2%,-4.3%,3%,-12%
CSc1nnc(-c2cc3c(s2)-c2ccccc2CC3)o1,-7%,0%,0%,?,3%,-6.2%,-6%,-23%
COc1ccccc1-n1c(SCC(=O)Nc2ccc(C)cc2)nc(O)cc1=O,5%,-9%&16%,0%&1%[46.1 µM],5%&-10%,?,-2.7%&-3.7%,-5%,5%[46.1 µM]

Six entries picked at random from those above:
Structure,RE007 growth inh,StopGo reporter,MARV entry inh,Cruzain inh noDet,NS1 inh,Cruzain inh Det,SARS PLP yeast,Lassa entry inh
C=CCn1c(SCC(=O)NC2CCS(=O)(=O)C2)nc2scc(C3CC3)c2c1=O (centres undefined),6%,13%,-35%,1%,2%,-4.3%,3%,-12%
CCN(CC)S(=O)(=O)c1ccc2c(c1)c(=O)c(C(=O)N(C)Cc1ccccc1)cn2C,·,19%,6%[46.1 µM],-6%,·,-3.7%,·,-3%[46.1 µM]
COc1ccc2c(c1)C(SCC(=O)NCCc1ccc(Cl)cc1)CC(C)(C)O2 (centres undefined),5%,10%,-26%,-10%,-48%,-3.6%,-16%,-16%
CN(Cc1ccccc1Cl)C(=O)C1CCC(=O)N(C2CCCCCC2)C1 (centres undefined),8%,4%,·,·,-19%,·,1%,·
COc1ccc(CNC(=O)Cn2cccc2C(=O)c2ccccc2)cc1,0%,21%,·,·,5%,·,-3%,·
COc1ccccc1-n1c(SCC(=O)Nc2ccc(C)cc2)nc(O)cc1=O,5%,-9%&16%,0%&1%[46.1 µM],5%&-10%,?,-2.7%&-3.7%,-5%,5%[46.1 µM]

Other records follow.
Structure,RE007 growth inh,StopGo reporter,MARV entry inh,Cruzain inh noDet,NS1 inh,Cruzain inh Det,SARS PLP yeast,Lassa entry inh
CCOC(=O)c1c(N)n(-c2ccc(OCC)cc2)c2nc3ccccc3nc12,·,0%,·,-8%,·,1.0%,·,-9%[46.1 µM]
O=C(CN1C(=O)c2ccccc2C1=O)NC1(C(=O)O)CCCC1,16%,-2%,?,-2%,-5%,3.7%,·,9%
O=C1C=C(NCc2ccco2)CCC1,-16%,·,9%,-10%,-2%,4.7%,3%,3%
COCCNC(=O)C(=O)NCCN1CCOCC1,0%,11%,2%,4%,3%,-0.7%,?,13%
CCn1nc(C(=O)OCc2cccc(S(=O)(=O)N(C)C)c2)c2ccccc2c1=O,-2%,?,·,·,?,·,1%,·
O=S(=O)(Nc1cccc(-c2cn3c(n2)SCC3)c1)c1ccccc1,9%,13%,-19%,·,3%,·,-8%,0%
O=C(Nc1cccc(S(=O)(=O)N2CCOCC2)c1)C12CC3CC(CC(C3)C1)C2,-9%,-8%,2%,·,·,·,3%,0%[46.1 µM]
CCCc1cc(=O)n2nc(N3CCC(C(=O)NCc4ccc(C)o4)CC3)sc2n1,0%,9%,·,·,2%,·,5%,·
CCN(CC)CCNC(=O)CCc1nnc2ccc(N3CCC(C)CC3)nn12,-5%,6%,·,·,-2%,·,-1%,·
CN(C(=O)Cc1c(C(=O)O)n(C)c2ccccc12)c1ccc(F)cc1,-3%,-8%,-3%[46.1 µM],·,·,·,0%,-10%
COc1cccc(C2CC(c3cccs3)=NN2C(=S)Nc2ccccc2)c1OC (centres undefined),-2%,-12%,-24%,?,21%,0.2%,3%,2%
CC1(c2ccccc2Cl)NC(=O)N(CC(=O)NC(=O)NCc2ccco2)C1=O (centres undefined),-5%,11%,-2%,2%,4%,2.8%,-16%,0%
COc1ccc(/C=C2/SC(=O)N(CCNC(=O)C3COc4ccccc4O3)C2=O)cc1 (centres undefined),-14%,20%,-1%,6%,6%,-9.2%,-33%,20%
O=C1CCCN1C(=O)COc1ccc([N+](=O)[O-])cc1,2%,1%,-5%[46.1 µM],·,·,·,·,13%
O=C(CSc1nnc(CNC(=O)c2cccs2)o1)Nc1cccc(C(F)(F)F)c1,2%,-5%,6%,3%,-2%,7.3%,3%,10%
C(=N\Nc1ccccn1)/c1ccc2c(c1)OCCO2,-18%,-27%,?,·,·,·,0%,?
COc1ccc(C)cc1NC(=O)c1cc2cc3ccc(C)cc3nc2o1,·,·,5%,3%,8%,5.4%,4%,·
O=C(/C=C/C=C/c1ccc2c(c1)OCO2)N1CCCCC1,7%,54%&38%[activator],·,-11%,·,-4.1%,6%,·
CCc1nnc(NS(=O)(=O)c2ccc(NC(=O)OC)cc2)s1,-10%,5%,1%,2%,-7%,-0.3%,5%,5%
Cc1ccccc1CNC(=O)c1cc2cc(S(=O)(=O)N3CCCCC3)ccc2n1C,·,-19%,·,?,·,-1.9%,·,?
CC(=O)c1cn(Cc2ccc(C#N)cc2)c2ccccc12,18%,-25%,·,·,1%,·,0%,·
CN(C)C(=O)c1ccc(NC(=O)COC(=O)C2=COCCO2)cc1,9%,-27%,?,·,·,·,-10%,-1%
O=C(O)COc1ccc(Br)cc1/C=C1/SC(=O)N(CC(=O)N2CCCC2)C1=O,6%,-21%,?,21%,8%,-3.5%,6%,4%
COc1ccccc1C(=O)NC(=S)Nc1ccccc1N1CCCCC1,7%,-14%,14%,·,1%,·,-5%,6%
COc1cc(OC)cc(C(=O)NCC(=O)N2CCN(c3ccc(O)cc3)CC2)c1,-4%,-12%,-2%[46.1 µM],·,20%,·,0%,-10%
CCCn1c(=O)c(C(=O)OCC)c(O)c2cc(Br)ccc21,0%,-12%,-1%[46.1 µM],·,·,·,0%,18%[46.1 µM]
Cc1ccccc1S(=O)Cc1ccc(C(=O)NC2CCCCCC2)o1 (centres undefined),·,-14%,1%[46.1 µM],-14%,·,-16%,·,-29%[46.1 µM]
COc1cc2c(cc1OC)CN(CC(=O)Nc1ccc(F)cc1F)CC2,3%,-15%,1%[46.1 µM],·,-6%,·,-2%,21%[46.1 µM]
O=C(CCN1C(=O)c2ccccc2C1=O)Nc1ccc2c(c1)OCCO2,-1%,48%[activator],3%,-10%,14%,2.1%,0%,24%[14.3 µM]
Cc1ccc2c(c1)N(S(=O)(=O)c1ccc(F)cc1)C(C(C)(C)C)CO2 (centres undefined),-14%,-30%,-47%,0%,-25%,-8.8%,?,?
COCc1cc(C)n(CC(=O)NCc2ccccc2)c(=O)c1C#N,-4%,-1%,·,·,4%,·,13%,·
O=S(=O)([N-]c1nc2ccccc2nc1-[n+]1ccccc1)c1ccc(Cl)cc1,0%,4%,0%,14%,-3%,-0.4%,-3%,1%
COc1c(C)cccc1C(=O)Nc1ccc(-c2nc3ccccc3s2)c(Cl)c1,·,-14%,14%[46.1 µM],1%,·,-1.9%,·,-3%[46.1 µM]
COc1ccc(NC2=C(c3ccc(C(F)(F)F)cc3)C(=O)c3ccccc32)cc1,·,-7%,-13%[46.1 µM],-21%,·,-1.6%,·,-3%[46.1 µM]
Cc1ccc2nc(N(CCCN(C)C)C(=O)c3ccc(Br)s3)sc2c1,-25%,-20%&-11%,?,·,·,·,-2%,?
CC(C)Oc1ccc(CNC(=O)CC(c2ccccc2)c2cc(Cl)ccc2O)cc1 (centres undefined),-2%,?,?,5%,-32%,-9.3%,-22%,7.3µM*
N/C(=N\OC(=O)CCCOc1ccccc1)c1ccc([N+](=O)[O-])cc1,-8%,-4%,16%[46.1 µM],·,-4%,·,4%,10%[46.1 µM]
Cc1cc(OCc2cc(C(=O)N3CCN(C)C(=O)[C@@H]3C)no2)cc(C)c1Cl,0%,?,·,·,-7%,·,-3%,·
